Compound activity (PubChem BioAssay)
Marburg entry inh = Marburg virus entry inhibition. Marburg virus pseudotyped entry inhibition, cell reporter; control for the full effect not named in the record; about a third of the inactives were read at about 46 µM. Potency, µM (top dose mostly 37.8 µM), inactives show at the top dose activity change, negative = inhibition, usual class: inhibitors. 1.8% of 300,000 active. AID 540276; active = well fitted inhibition curve with a large enough effect; inconclusive = small, poorly fitted or top-dose-only effect, or effect the other way; inactive = flat fitted curve, though single readings scatter; tested in HEK293 cells; about a fifth of its hits are not listed in these tables; note: % is set by controls: 0 for no effect and ±100 for the full control effect; luciferase read-out
NS1 inh = influenza NS1 inhibition. S. cerevisiae slowed by influenza A NS1, growth recovery by OD600. 0.4% of 270,000 active. Potency, µM (series often up to 46.1 µM), for the others: at the highest dose activity, positive = more growth; active means well fitted rising curve with a large enough effect; inconclusive means small, poorly fitted or top-dose-only effect; inactive means no such curve, though single readings can be large or run the other way; note: nearly all actives have a fitted effect of over 50% in size
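S. cerevisiae expressing influenza A NS1, grown in glucose, washed, then diluted 1:100 into pH 6.0 -URA galactose medium with 23 nl compound. Growth recovery read as OD600; NS1-free strain serves as control.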
RE007 growth inh = less growth of the S. pombe RE007 Vpr strain. S. pombe RE007 Vpr strain, BacTiter-Glo ATP luminescence, 24 h; control for the full effect not named in the record. Potency, µM (series often up to 92.2 µM), inactives show at the top dose activity change, negative = less growth. 0.21% of 360,000 active. AID 651644; active = well fitted falling curve with a large enough effect; inconclusive = small, poorly fitted or top-dose-only effect; inactive = no such curve, though single readings can be large or run the other way;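 note: % is set by controls: 0 for no effect and ±100 for the full control effect; nearly all actives have a fitted effect of over 50% in size; the assay follows cell death caused by Vpr and the record does not say whether a fall means rescue or toxicity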
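Fission yeast strain RE007, carrying one chromosomally integrated HIV-1 vpr copy, was seeded at OD 0.01 in PMG+AL medium with 23 nL pinned compound. After 24 h at 30 °C and 99% humidity, viability was read by BacTiter-Glo luminescence.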
2A StopGo = lowers the luciferase signal of an FMDV 2A StopGo reporter; 1.2% of 410,000 active; Potency, µM (doses to about 57.9 µM), for the others: at the highest dose signal change, negative = less light; human cells with a luciferase reporter of 2A StopGo recoding; control for the full effect not named in the record; active = well fitted falling curve with a large enough effect; inconclusive = small, poorly fitted or top-dose-only effect; inactive = no such curve, though single readings can be large or run the other way; tested in HEK293T cells; note: % is set by controls: 0 for no effect and ±100 for the full control effect; nearly all actives have a fitted effect of over 45% in size; luciferase light after 4 h
LASV entry inh = Lassa virus entry inhibition | Potency, µM (highest dose often 37.9 µM), without a hit: top-dose activity change, negative = inhibition, hits mostly inhibitors | Lassa virus pseudotype entry inhibition, cell reporter; control for the full effect not named in the record | 1.2% of 300,000 active; active means well fitted inhibition curve with a large enough effect; inconclusive means small, poorly fitted or top-dose-only effect, or effect the other way; inactive means flat fitted curve, though single readings scatter; tested in HEK293 cells; note: % is set by controls: 0 for no effect and ±100 for the full control effect; nearly all actives have a fitted effect of over 50% in size; luciferase read-out
SARS PLpro yeast = inhibitors of SARS-CoV papain-like protease in yeast; 0.19% of 330,000 active; AID 485353; Potency, µM (top dose mostly 32.9 µM), without a hit: at the top dose activity, positive = growth rescue; S. cerevisiae expressing SARS-CoV PLpro, growth rescue; control for the full effect not named in the record; active means well fitted rising curve with a large enough effect; inconclusive means small, poorly fitted or top-dose-only effect; inactive means no such curve, though single readings can be large or run the other way; note: 0% is about no effect; nearly all actives have a fitted effect of over 55% in size; growth read by luminescence after 48 h
Cruzain inh Det = inhibitors of Trypanosoma cruzi cruzain with detergent | P25779 | purified cruzain, Z-FR-AMC fluorescence, 0.01% Triton | Potency, µM, without a hit: max response, negative = inhibition, most hits filed as inhibitors | 0.43% of 200,000 active | AID 1478;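 note: plate controls were neutral wells for no effect and buffer without enzyme for full effect; nearly all actives have a fitted effect of over 40% in size; top concentration of the series not given in the record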
Target sequence (P25779 123-467 limits assumed): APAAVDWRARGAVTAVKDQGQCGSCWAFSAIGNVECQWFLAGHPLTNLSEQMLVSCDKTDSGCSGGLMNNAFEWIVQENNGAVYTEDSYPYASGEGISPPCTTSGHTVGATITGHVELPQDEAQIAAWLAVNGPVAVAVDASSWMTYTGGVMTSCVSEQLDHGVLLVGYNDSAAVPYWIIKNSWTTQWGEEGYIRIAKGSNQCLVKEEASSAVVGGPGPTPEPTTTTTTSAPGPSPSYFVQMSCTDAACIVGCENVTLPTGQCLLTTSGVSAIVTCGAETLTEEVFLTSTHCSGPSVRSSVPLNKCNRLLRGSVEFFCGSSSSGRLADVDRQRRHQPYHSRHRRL
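Z-FR-AMC hydrolysis (2 uM substrate) by cruzain (1.5 nM) monitored kinetically at ex 360/em 450 nm after 15 min room-temperature compound exposure; 0.01% Triton X-100, pH 5.5, 5 mM DTT.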
Cruzain inh noDet = inhibitors of Trypanosoma cruzi cruzain without detergent; P25779; purified cruzain, Z-FR-AMC fluorescence, no detergent; Potency, µM, for the others: max response, negative = inhibition, usual class: inhibitors; 2.3% of 200,000 active; AID 1476;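 note: plate controls were enzyme without inhibitor for no effect and buffer without enzyme for full effect; nearly all actives have a fitted effect of over 40% in size; top concentration of the series not given in the record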
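Purified cruzain at 1.5 nM, pre-incubated 15 min with compound at room temperature in 100 mM sodium acetate pH 5.5, 5 mM DTT, 0.00005% Triton X-100. Reaction started with 2 uM Z-FR-AMC; AMC fluorescence increase over 60 s gives rate.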
* = called active by the depositor; ? = inconclusive; · = no result given; & = joins results of further samples; [ ] = dose if it differs, or a comment. Unless noted, calls come from the whole dose curve; as a rule, active = well fitted curve in the direction sought with a large enough effect; inconclusive = small, poorly fitted or top-dose-only effect, or another doubt; inactive = no such curve, though single readings can be large; an effect the other way counts as inactive or inconclusive. Potency is the fitted concentration of half-maximal effect.

#1 O=C(O)CCNc1cc2ccccc2cc1C(=O)O
#2 COc1cccc(-n2ccnc2SCC(=O)Nc2cccc(C)c2C)c1
#3 Cc1cc(C)n2nc(SCC(=O)N3CCCC(C)C3)nc2n1 (stereo not given)
#4 Cc1c(/C(O)=C2/C(=O)C(=O)N(Cc3cccnc3)C2c2cccs2)cnn1-c1ccccc1 (stereo not given)
#5 CCc1ccc(CNC(=O)CCS(=O)(=O)Cc2ccc(C)cc2)cc1
#6 CC(C)N(Cc1ccccc1)C(=O)CC(=O)N(Cc1ccccc1)C(C)C
#7 CCCCC(=O)Nc1ccc(S(=O)(=O)N2CCCCC2c2cccnc2)cc1 (stereo not given)
#8 Cc1ccc(S(=O)(=O)CCC(=O)Nc2ccc3c(c2)OCO3)cc1
Assay by compound,1,2,3,4,5,6,7,8
Marburg entry inh,-1%,·,5%,23%,·,19%[46.1 µM],4%,-14%
NS1 inh,8%,·,·,-30%,3%,7%,-16%,-9%
RE007 growth inh,-7%,·,1%,-1%,-1%,2%,-1%,20%
2A StopGo,1%,-30%,-7%,-10%,-4%,-13%,-13%,21%
LASV entry inh,0%,-30%[46.1 µM],?,27%,·,·,-25%,?
SARS PLpro yeast,7%,·,1%,?,-1%,-15%,2%,-7%
Cruzain inh Det,-2.2%,-5.4%,·,-11%,·,·,·,7.9%
Cruzain inh noDet,-7%,12%,·,6%,·,·,·,-2%

#9 NC(=O)COC(=O)CSc1cccc2cccc(Cl)c12
#10 O=C(OCc1ccc(Cl)cc1)c1cccnc1Cl
#11 CCc1ccc2c(c1)NC(c1cccs1)=NC(c1ccc(F)cc1)=N2
#12 COc1ccc(C(=O)Nc2nnc(C)s2)cc1
#13 COC(=O)c1ccccc1NC(=O)CSc1nnc(COc2cccc(OC)c2)n1C
#14 O=C(CSc1n[nH]c(-c2ccc(F)cc2)n1)N1CCN(c2ccc(F)cc2)CC1
#15 Cc1ccc(C)c(N2CCN(C(=O)c3csc(C)c3C)CC2)c1
#16 Cc1onc(-c2ccccc2Cl)c1C(=O)Oc1cccc2cccnc12
Assay by compound,9,10,11,12,13,14,15,16
Marburg entry inh,27%[46.1 µM],-9%[46.1 µM],19%[46.1 µM],·,12%,·,?,?
NS1 inh,·,-7%,·,·,-7%,·,-23%,·
RE007 growth inh,-15%,-5%,·,·,8%,·,-10%,?
2A StopGo,-11%,12%,20%,31%[activator],-18%,-1%,-8%,-29%
LASV entry inh,18%,3%,?,0%[46.1 µM],13%,3%[46.1 µM],?,?
SARS PLpro yeast,-2%,-2%,·,·,1%,·,-23%,-3%
Cruzain inh Det,·,·,-4.9%,-0.7%,5.6%,-3.2%,-7.7%,·
Cruzain inh noDet,·,·,?,-4%,-11%,8%,-13%,·

#17 O=C(Nc1cc(C(F)(F)F)ccc1N1CCOCC1)c1cncc(Br)c1
#18 O=C(CN(C(=O)CNC(=O)c1ccco1)c1ccc(F)c(Cl)c1)NC1CCCCC1
#19 C/C=C/c1ccc(OCC(=O)Nc2cc(C(F)(F)F)ccc2N2CCOCC2)c(OC)c1
#20 CCCOc1ccc(Cl)cc1CNc1ccccc1
#21 Cc1ccc(NS(=O)(=O)c2c(C)nc3sc(C)c(C)n3c2=O)cc1F
#22 CCCCn1c(N)c(N(CCOC)C(=O)CN(C)S(=O)(=O)c2ccc(F)cc2)c(=O)[nH]c1=O
#23 CCOc1ccc(CC(=O)Nc2nccs2)cc1OCC
#24 CCOC(=O)Cn1c2ccccc2c2nc3ccccc3nc21
Assay by compound,17,18,19,20,21,22,23,24
Marburg entry inh,4%,-13%[46.1 µM],0%,-28%,·,8%,9%,1%[46.1 µM]
NS1 inh,?,-1%,15%,2%,·,·,6%,0%
RE007 growth inh,13%,3%,8%,-12%,·,-9%,10%,-27%
2A StopGo,-26%,-27%,-10%,-12%,16%,-4%,-3%,-7%
LASV entry inh,-6%,1%[46.1 µM],1%,-12%,?,6%,14%,8%
SARS PLpro yeast,3%,-3%,7%,-1%,·,1%,-1%,2%
Cruzain inh Det,-6.4%,·,·,·,-7.3%,·,·,2.1%
Cruzain inh noDet,-4%,·,·,·,-3%,·,·,9%

#25 CC(=O)c1ccc(NC(=O)Cn2cnc(S(=O)(=O)N3CCc4ccccc43)c2)cc1
#26 CCc1nn2c(=O)cc(COC(=O)C(CC)c3ccccc3)nc2s1 (stereo not given)
#27 O=C(c1ccc(F)cc1F)N1CCC(c2noc(-c3ccc(S(=O)(=O)N4CCCC4)cc3)n2)CC1
#28 COc1cccc(OCC(O)CN2CCC(CN3C(=O)c4cccc5cccc(c45)C3=O)CC2)c1 (stereo not given)
#29 CCC(=O)N=c1n(C)c2ccccc2n1CCOc1ccccc1
#30 CC(=O)c1c(COC(=O)c2ccc(Cl)cc2)nc2ccccc2[n+]1[O-]
#31 CCN(CC)Cc1c(C(=O)N/N=C/c2ccc(C)o2)nnn1-c1nonc1N
#32 CC(C)C(C(=O)Nc1ccc2c(c1)OCCO2)N1C(=O)c2ccccc2C1=O (stereo not given)
Assay by compound,25,26,27,28,29,30,31,32
Marburg entry inh,-7%[46.1 µM],·,-8%[46.1 µM],?,?,-9%[46.1 µM],-13%[46.1 µM],-22%[46.1 µM]
NS1 inh,2%,·,·,·,16%,1%,-10%,-8%
RE007 growth inh,11%,·,·,2%,1%,-25%,12%,8%
2A StopGo,-4%,?,-9%,?,-13%,-11%,-11%,-9%
LASV entry inh,-17%[46.1 µM],10%[46.1 µM],23%[46.1 µM],?,23%,4%,5%,0%
SARS PLpro yeast,4%,·,·,2%,-18%,0%,0%,4%
Cruzain inh Det,·,-1.9%,6.4%,·,3.1%,·,·,-2.9%
Cruzain inh noDet,·,-4%,2%,·,3%,·,·,-22%

Compound profiles, as listed above.
Record of CC(C)C(C(=O)Nc1ccc2c(c1)OCCO2)N1C(=O)c2ccccc2C1=O (stereo not given) = Marburg entry inh: -22%[46.1 µM]; NS1 inh: -8%; RE007 growth inh: 8%; 2A StopGo: -9%; LASV entry inh: 0%; SARS PLpro yeast: 4%; Cruzain inh Det: -2.9%; Cruzain inh noDet: -22%
Record of Cc1ccc(S(=O)(=O)CCC(=O)Nc2ccc3c(c2)OCO3)cc1 = Marburg entry inh: -14%; NS1 inh: -9%; RE007 growth inh: 20%; 2A StopGo: 21%; LASV entry inh: ?; SARS PLpro yeast: -7%; Cruzain inh Det: 7.9%; Cruzain inh noDet: -2%

Next part:
#33 Cn1c(N)c(C(=O)COC(=O)c2ccccc2NCc2ccco2)c(=O)n(C)c1=O
#34 Cc1cc(C)c(S(=O)(=O)N2CCOCC2)cc1C
#35 CSC(N)=NCCC[C@H](N)C(=O)O
#36 O=C(Cn1ncc2c(=O)oc3ccccc3c21)N1CCCc2ccccc21
#37 C=CCN1C(=O)/C(=C/c2ccc(N3CCOCC3)o2)C(=O)NC1=S
#38 COc1cc2[nH]c(=S)nc(NC3CCCCCC3)c2cc1OC
#39 CCOc1cc2[nH]c(=O)n(CCCN3CCCC3=O)c(=O)c2cc1OCC
#40 Cc1cccc(C(O)(C(=O)NNc2ccc3ccccc3n2)c2cccc(C)c2)c1
Assay by compound,33,34,35,36,37,38,39,40
Marburg entry inh,-4%[46.1 µM],-15%[14.2 µM],25%&25%&20%,-24%,-9%,?,15%,7%
NS1 inh,·,-1%,0%,-4%,17%,·,2%,21%
RE007 growth inh,2%,9%,·,1%,3%,-14%,4%,-13%
2A StopGo,12%,-14%,·,-5%,-5%,?,-16%,-21%
LASV entry inh,20%[46.1 µM],-18%,-3%,13%,10%,6%,?,-1%
SARS PLpro yeast,0%,-2%,·,2%,9%,6%,-1%,?
Cruzain inh Det,·,·,-3.4%,1.1%,-22%,·,-2.2%,-2.3%
Cruzain inh noDet,·,·,9%,-9%,-11%,·,8%,3%

#41 CC(Oc1cccc2ccccc12)C(=O)N/N=C/c1cccnc1 (stereo not given)
#42 COc1cc(-c2cc(N)n(S(=O)(=O)c3ccccc3)n2)cc(OC)c1OC
#43 Cc1cc(NC(=O)c2ccc(S(=O)(=O)N3CCOCC3)cc2)no1
#44 O=C(CS(=O)c1cccc(C(F)(F)F)c1)Nc1ccccc1Cl (stereo not given)
#45 Fc1ccc(-c2noc(C3CCN(Cc4cccnc4)CC3)n2)cc1
#46 Cc1nc(N/N=C/c2ccc(Br)cc2)cc(N2CCOCC2)n1
#47 COc1cc(/C=N/N(C)C)ccc1OC(=O)c1cccs1
#48 CCCC(=O)Nc1ccc(C(=O)NCc2ccccn2)cc1
Assay by compound,41,42,43,44,45,46,47,48
Marburg entry inh,·,·,1%[14.2 µM],-27%,?,?,3%,17%[46.1 µM]
NS1 inh,-11%,6%,-3%,0%,-2%,4%,-28%,·
RE007 growth inh,8%,-2%,7%,-13%,8%,?,0%,-18%
2A StopGo,-6%,?,0%,-2%,-22%,-23%,9%,12%
LASV entry inh,·,·,-8%,5%,0%,·,24%,7%[46.1 µM]
SARS PLpro yeast,-6%,5%,1%,0%,7%,-11%,0%,0%
Cruzain inh Det,·,-2.3%,·,4.7%,3.4%,·,·,·
Cruzain inh noDet,·,5%,·,6%,-2%,·,·,·

#49 O=C(N/N=C\c1cccc(Cl)c1)c1ccc(Cn2cccn2)o1
#50 CC(Nn1cnnc1)c1cc(Cl)ccc1O (stereo not given)
#51 Cc1nc(SCCC(=O)O)c2cc(-c3ccccc3)sc2n1
#52 O=C(NCc1cccc(F)c1)C1CCC(=O)N(CCCN2CCOCC2)C1 (stereo not given)
Assay by compound,49,50,51,52
Marburg entry inh,3%,15%[46.1 µM],4µM*,-10%
NS1 inh,-13%,4%,-43%,-1%
RE007 growth inh,-16%,37%,-28%,9%
2A StopGo,7%,-9%,?,-7%
LASV entry inh,?,?,·,-6%
SARS PLpro yeast,8%,0%,-2%,0%
Cruzain inh Det,-6.5%,·,·,·
Cruzain inh noDet,-5%,·,·,·
